NPYLR7 ag – agonists of mosquito NPYLR7 receptor, primary screen, cell-based, Aedes aegypti, calcium fluorescence, mosquito biting behavior; HEK293T NPYLR7/Galpha15, GCaMP6s calcium fluorescence; activation, % at 10 µM; actives 0.15% (n = 270,000); in the data active = activation above about 40%;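 note: 0% = vehicle and 100% = reference agonist at the receptor; some compounds past the cut are filed as inactive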
NPYLR7 ag max-min – also measured in NPYLR7 ag; calls as there; activation, %; measured here: Max-Min RFU normalised activation; some inactives read as strong as hits;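 span of the calcium signal over five minutes; 0% = vehicle and 100% = native peptide agonist; compound fluorescence can raise it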
* hit, by the source's call. This is a subset (hit frequency here may not be typical).

The first 2 entries as a preview:
O=[N+]([O-])c1ccc(-[n+]2ccccc2)c([N+](=O)[O-])c1 was read as NPYLR7 ag 4 and NPYLR7 ag max-min 4.
`COc1ccc(OC)c(S(=O)(=O)NC(=O)C2(C)CCN2C(=O)Cc2ccc(C(C)C)cc2)c1` (stereo not given) gave NPYLR7 ag -2 and NPYLR7 ag max-min -8.

Results, from the first entry:
O=[N+]([O-])c1ccc(-[n+]2ccccc2)c([N+](=O)[O-])c1 was read as NPYLR7 ag 4 and NPYLR7 ag max-min 4.
`COc1ccc(OC)c(S(=O)(=O)NC(=O)C2(C)CCN2C(=O)Cc2ccc(C(C)C)cc2)c1` (stereo not given) gave NPYLR7 ag -2 and NPYLR7 ag max-min -8.
For Cn1cnnc1SCc1cc(=O)c(OCc2ccc(C(F)(F)F)cc2)co1 the results were NPYLR7 ag 7 and NPYLR7 ag max-min 3.
Cc1ccc(C(=O)NCCc2ccc(OCC(=O)NC3CC3)cc2)cc1F was read as NPYLR7 ag 10 and NPYLR7 ag max-min 6.
For O=C(CSc1nnc(-c2n[nH]c3ccccc23)o1)Nc1ccc(F)c(Cl)c1 the results were NPYLR7 ag -2 and NPYLR7 ag max-min -3.
For CN(Cc1ccccn1)C(=O)c1ccc(OC2CCN(CCc3ccccc3)CC2)cc1 the results were NPYLR7 ag 1 and NPYLR7 ag max-min 0.
Screening Cc1cc(NC(=O)CSc2ncccn2)no1 returned NPYLR7 ag -4 and NPYLR7 ag max-min -4.
`O=C(Oc1ccc(-c2nc(-c3cccnc3)no2)cc1)c1ccccc1` gave NPYLR7 ag -5 and NPYLR7 ag max-min -11.
For CC1CCN(CCCn2c(=S)[nH]c3ccccc3c2=O)CC1 the results were NPYLR7 ag 9 and NPYLR7 ag max-min 6.
COC1CN(C(=O)CC(C)(C)C)CCC(=O)N(C)c2ccccc21 (stereo not given) was read as NPYLR7 ag 4 and NPYLR7 ag max-min 14.
Screening CCn1c(C)c(C(=O)CN(C(=O)c2ccc(Br)cc2)C2CCCCC2)c(C)c1C(=O)OC returned NPYLR7 ag -12 and NPYLR7 ag max-min -7.
Screening CC(=O)c1cccc(-c2ccc(NCCO)nn2)c1 returned NPYLR7 ag 6 and NPYLR7 ag max-min 6.
Screening COc1ccccc1NC(=O)C1CC(=O)N(C)C(=Nc2cccc(C(F)(F)F)c2)S1 (stereo not given) returned NPYLR7 ag -8 and NPYLR7 ag max-min -13.
CC(C)c1cccc(NC(=O)c2ccc(S(N)(=O)=O)o2)c1 was read as NPYLR7 ag 0 and NPYLR7 ag max-min -2.
Cc1nc(C)c(C(=O)N2CCCC(Nc3ccc4c(c3)OCCO4)C2)s1 (stereo not given) was read as NPYLR7 ag 4 and NPYLR7 ag max-min 1.
For C=CCOC(=O)C1=C(C)NC(=O)NC1c1cc(OC)c(OC)c(OC)c1 (stereo not given) the results were NPYLR7 ag -1 and NPYLR7 ag max-min -5.
`O=C(CCCc1ccccc1)Nc1ccc(SCC(=O)N2CCCC2)nn1` gave NPYLR7 ag -4 and NPYLR7 ag max-min -4.
Screening CCCCc1ncc(CN2CCCC(CO)(CCc3ccccc3)C2)[nH]1 (stereo not given) returned NPYLR7 ag 5 and NPYLR7 ag max-min 0.
Cc1ccc(C(=O)N2CCC(CCC(=O)N3CCN(c4ccccc4)CC3)CC2)cn1 was read as NPYLR7 ag 4 and NPYLR7 ag max-min 2.
For CCCN(CC(=O)Nc1c(-c2ccccc2)c(C)nn1-c1ccc(OC)cc1)C(=O)c1cccc(OC)c1 the results were NPYLR7 ag -2 and NPYLR7 ag max-min 5.
Screening Cc1cc(O)c(C(c2cccnc2)N2CCCCC2)c(=O)n1Cc1ccco1 (stereo not given) returned NPYLR7 ag 10 and NPYLR7 ag max-min 3.
`NC(=O)CCCC1=NS(=O)(=O)c2ccccc2N1` gave NPYLR7 ag -1 and NPYLR7 ag max-min -3.
Screening CNC(=O)Cn1cc(-c2nnc(C)o2)c2ccccc21 returned NPYLR7 ag 4 and NPYLR7 ag max-min 11.
Screening CN(C)c1ncnc2c1CCN(C(=O)c1c[nH]c3c(F)cccc3c1=O)C2 returned NPYLR7 ag 7 and NPYLR7 ag max-min 5.
CN1CCCC1(C)C(=O)NCc1ccc(F)cc1Cl (stereo not given) was read as NPYLR7 ag 5 and NPYLR7 ag max-min 1.
O=C(/C=C/c1cccc(I)c1)Nc1nc2ccccc2s1 was read as NPYLR7 ag -1 and NPYLR7 ag max-min -6.
Cc1cccnc1NC(=O)CCc1ccc(F)cc1 was read as NPYLR7 ag 3 and NPYLR7 ag max-min 1.
`CCS(=O)(=O)N(C)C(=O)c1ccc(C#N)cc1` gave NPYLR7 ag 20 and NPYLR7 ag max-min 11.
For COc1cc(OC)c(NC(=O)Nc2cc(C)on2)cc1Cl the results were NPYLR7 ag -18 and NPYLR7 ag max-min -23.
`Cc1noc(CSCc2nc(CC(C)C)nn2-c2ccccn2)n1` gave NPYLR7 ag 15 and NPYLR7 ag max-min 4.
`O=C(Nc1ccc2c(c1)CN(C(=O)c1ccsc1)CC2)c1ccccc1Cl` gave NPYLR7 ag 6 and NPYLR7 ag max-min 1.
For COC(=O)CC1C(=O)NCCN1S(=O)(=O)c1cc(C)ccc1C (stereo not given) the results were NPYLR7 ag -6 and NPYLR7 ag max-min 18.
CC(=NOCc1nc2c3c4c(sc3ncn2n1)C(C)(C)NC(C)(C)C4)c1cccs1 was read as NPYLR7 ag 7 and NPYLR7 ag max-min 7.
Screening Cc1ccc(C(=O)N2CCCC(C(=O)N3CCN(C(=O)OC(C)(C)C)CC3(C)C)C2)cc1 (stereo not given) returned NPYLR7 ag -7 and NPYLR7 ag max-min -9.
O=C(Nc1cc(C(=O)N2CCCCC2)ccc1Cl)C1CCC1 was read as NPYLR7 ag 10 and NPYLR7 ag max-min 6.
For Cc1ccc(S(=O)(=O)N2CCc3sccc3C2c2ccccc2C)cc1 (stereo not given) the results were NPYLR7 ag -8 and NPYLR7 ag max-min 1.
For CC1CCCC(C)N1C(=O)c1cc2cccnc2n(Cc2ccc(F)cc2)c1=O (stereo not given) the results were NPYLR7 ag 8 and NPYLR7 ag max-min 6.
CNC(=O)Cn1cc(NC(=O)CSCc2cc(C)ccc2C)cn1 was read as NPYLR7 ag 9 and NPYLR7 ag max-min 7.
`CC1(C)OCC(CNC(=O)CS(=O)(=O)Cc2ccc(C#N)cc2)O1` (stereo not given) gave NPYLR7 ag 2 and NPYLR7 ag max-min 81.
COC(=O)c1ccc(/C=C2\N=C(c3cccc(C)c3)OC2=O)cc1 was read as NPYLR7 ag 10 and NPYLR7 ag max-min 11.
C=C[C@]1(C)C[C@](O)([C@@H]2OC2(C)C)Oc2c1c(=O)oc1cccc(CC)c21 was read as NPYLR7 ag -9 and NPYLR7 ag max-min -19.
Screening C(=C\c1ccccc1)/CN1CCN(CCn2cncn2)CC1 returned NPYLR7 ag -6 and NPYLR7 ag max-min -10.
For CCNC(=O)N1CCc2nc(N3CCOCC3)nc(Oc3ccc(OC)cc3)c2C1 the results were NPYLR7 ag 2 and NPYLR7 ag max-min -1.
Cc1cccc(COC(CN2CCN(C(=O)Nc3ccc(F)cc3)CC2)c2ccc(Cl)cc2)c1 (stereo not given) was read as NPYLR7 ag 16 and NPYLR7 ag max-min 4.
ON=Cc1cccn1-c1ccc(O)cc1 was read as NPYLR7 ag -8 and NPYLR7 ag max-min -15.

4 entries picked at random from those above:
CC(=NOCc1nc2c3c4c(sc3ncn2n1)C(C)(C)NC(C)(C)C4)c1cccs1 was read as NPYLR7 ag 7 and NPYLR7 ag max-min 7.
O=C(Nc1cc(C(=O)N2CCCCC2)ccc1Cl)C1CCC1 was read as NPYLR7 ag 10 and NPYLR7 ag max-min 6.
`CC1(C)OCC(CNC(=O)CS(=O)(=O)Cc2ccc(C#N)cc2)O1` (stereo not given) gave NPYLR7 ag 2 and NPYLR7 ag max-min 81.
For CCNC(=O)N1CCc2nc(N3CCOCC3)nc(Oc3ccc(OC)cc3)c2C1 the results were NPYLR7 ag 2 and NPYLR7 ag max-min -1.

(more compounds)
For O=C(c1cc(-c2ccc(F)cc2)nc2cc(-c3ccccc3)nn12)N1CCN(c2cccc(Cl)c2)CC1 the results were NPYLR7 ag 7 and NPYLR7 ag max-min 10.
N#Cc1cc(Cl)c(N2CCOCC2)cc1C#N was read as NPYLR7 ag -1 and NPYLR7 ag max-min -4.
For O=C(CS(=O)(=O)c1nnc2ccccn12)Nc1ccc(Cl)cc1 the results were NPYLR7 ag -4 and NPYLR7 ag max-min -6.
`COCCCNCC1(c2ccnc(-c3cccc(NS(C)(=O)=O)c3)c2)CC1` gave NPYLR7 ag 12 and NPYLR7 ag max-min 18.
For Cc1nc2c(O)cccn2c(=O)c1Cc1ccccc1 the results were NPYLR7 ag -14 and NPYLR7 ag max-min -22.
CCOc1cc(CNn2nnnc2N)cc(Cl)c1OCC(=O)NC(C)(C)C was read as NPYLR7 ag -11 and NPYLR7 ag max-min -16.
Screening CCCC(=O)NC(Nc1ccc(S(N)(=O)=O)cc1)C(Cl)(Cl)Cl (stereo not given) returned NPYLR7 ag 6 and NPYLR7 ag max-min 9.
`Cc1ccc(-c2cc(C(=O)N3CCN(Cc4ccc5c(c4)OCO5)CC3)n(-c3ccc(F)cc3)n2)cc1C` gave NPYLR7 ag 0 and NPYLR7 ag max-min 6.
`Cc1nn(Cc2ccc(Cl)cc2Cl)c2sc(C(=O)N3CCNC(=O)C3)cc12` gave NPYLR7 ag 7 and NPYLR7 ag max-min 2.
`O=C(CCc1ccccc1)Nc1cccc(-c2cccc(-c3ccc(F)cc3)n2)c1` gave NPYLR7 ag -14 and NPYLR7 ag max-min -8.
`COc1ccc(-c2noc(CCC(=O)Nc3nc4ccccc4s3)n2)cc1` gave NPYLR7 ag -4 and NPYLR7 ag max-min -8.
`Cc1cc(C)n(C(=O)C(C(=O)c2ccccc2)C(C)C)n1` (stereo not given) gave NPYLR7 ag -5 and NPYLR7 ag max-min -7.
Screening CN(Cc1ccccc1)c1ncccc1CNc1ncc(Cl)cn1 returned NPYLR7 ag -1 and NPYLR7 ag max-min -3.
Screening CCCCCN(Cc1cccn1Cc1ccccc1C)S(=O)(=O)c1cc(Cl)ccc1Cl returned NPYLR7 ag 24 and NPYLR7 ag max-min 36.
`O=C(NNC(=O)c1ccccc1Cl)c1ccc(=O)n(Cc2ccc(Cl)cc2)c1` gave NPYLR7 ag -8 and NPYLR7 ag max-min -14.
`Cc1ccc2c(c1)c1c(n2C)C(C#N)CCC1` (stereo not given) gave NPYLR7 ag 3 and NPYLR7 ag max-min 1.
`COc1cc(OC)c(NC(=O)C2CCN(S(=O)(=O)c3ccc4c(c3)CCC4)CC2)cc1Cl` gave NPYLR7 ag 16 and NPYLR7 ag max-min 16.
For CC1CCc2c(sc(N=CN(C)C)c2C#N)C1 (stereo not given) the results were NPYLR7 ag 2 and NPYLR7 ag max-min 1.
For CSc1ccc(/C=C2N=C(/C=C/c3ccccc3)OC/2=O)cc1 the results were NPYLR7 ag -3 and NPYLR7 ag max-min -4.
`COc1ccc(C(=O)N2CCCC(C(=O)c3ccc4c5c(cccc35)CC4)C2)o1` (stereo not given) gave NPYLR7 ag -13 and NPYLR7 ag max-min -15.
Screening Nc1nc(CN2CCC(C(=O)c3cc(F)ccc3F)CC2)nc2ccccc12 returned NPYLR7 ag 3 and NPYLR7 ag max-min 9.
For CC(C)c1ccc(Oc2cc(C(F)(F)F)nc(SCc3ccccc3F)n2)cc1 the results were NPYLR7 ag 13 and NPYLR7 ag max-min 4.
CC(=O)OC(C(=O)N1CCC(Cc2ccc(-c3ccccc3)cc2)CC1)c1ccccc1 (stereo not given) was read as NPYLR7 ag -6 and NPYLR7 ag max-min -3.
`COc1cc(NS(=O)(=O)c2ccc(Cl)cc2F)cc(OC)c1` gave NPYLR7 ag 5 and NPYLR7 ag max-min 3.
Cc1cn2nc(Oc3ccc(Br)cc3F)sc2n1 was read as NPYLR7 ag -2 and NPYLR7 ag max-min -6.
`Cc1sc2ncc(C(=O)N3CCC4(CCCO4)CC3)c(=O)n2c1C` gave NPYLR7 ag -4 and NPYLR7 ag max-min -4.
For COc1ccc2c(c1)c(C(=O)N1CCC3(CCNCC3)CC1)c(C)n2C the results were NPYLR7 ag 5 and NPYLR7 ag max-min 3.
`CC(C)N(Cc1nccn1C)C(=O)[C@@H]1C[C@@H](NC(=O)c2cccs2)CN1` gave NPYLR7 ag 5 and NPYLR7 ag max-min 12.
Screening C=C(C)Cn1c(SCC(=O)N=Nc2c(O)[nH]c3ccccc23)nnc1-c1ccc(Br)cc1 returned NPYLR7 ag -5 and NPYLR7 ag max-min -10.
`CCOc1ccc(C(C2Sc3nc(CC)nn3C2=O)N2CCCC2)cc1` (stereo not given) gave NPYLR7 ag -2 and NPYLR7 ag max-min 0.
For COc1ccc(-n2ccnc2-c2nc(-c3cccs3)oc2C)cn1 the results were NPYLR7 ag 57* and NPYLR7 ag max-min 49*.
`N#CC1(c2ccccc2)CCN(C(=O)C2CC=CCC2C(=O)Nc2cccc(Oc3ccccc3)c2)CC1` (stereo not given) gave NPYLR7 ag 1 and NPYLR7 ag max-min -6.
For COc1ccc(C(c2c(O)cc(C)n(Cc3ccccc3)c2=O)N2CCN(CCO)CC2)cc1 (stereo not given) the results were NPYLR7 ag 3 and NPYLR7 ag max-min 1.
O=C(O)CN1C(=O)/C(=C\c2ccc(-c3ccc(Cl)c([N+](=O)[O-])c3)o2)SC1=S was read as NPYLR7 ag 2 and NPYLR7 ag max-min -6.
`CCC(C)N(Cc1c(C)nn(-c2ccccc2)c1N1CCN(CC)CC1)C(=O)Nc1ccccc1C` (stereo not given) gave NPYLR7 ag 3 and NPYLR7 ag max-min 5.
For Clc1cccc(C2Nc3cccc4cccc(c34)N2)c1Cl the results were NPYLR7 ag -2 and NPYLR7 ag max-min -3.
Cc1nc(NC(=O)C2CCCC2)sc1-c1n[nH]c(=S)n1C1CC1 was read as NPYLR7 ag 7 and NPYLR7 ag max-min 14.

Assay outcomes as filed in PubChem BioAssay.
